Bioassay records deposited in PubChem by Fisher Drug Discovery Resource Center.
NPYLR7 agonist: activates Aedes aegypti NPYLR7 receptor; HEK293T NPYLR7/Galpha15, GCaMP6s calcium fluorescence; activation, % at 10 µM; 270,000 tested, 0.15% active; in the data active means activation above about 40%;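 further: 0% = vehicle and 100% = reference agonist at the receptor; some compounds past the cut are filed as inactive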
NPYLR7 agonist max-min: further read-out of NPYLR7 agonist, marked with its call; activation, %; measured here: Max-Min RFU normalised activation; some inactives read as strong as hits;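 span of the calcium signal over five minutes; 0% = vehicle and 100% = native peptide agonist; compound fluorescence can raise it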
Numbers without * were called inactive; & = joins results of further samples.

No.	Structure	NPYLR7 agonist	NPYLR7 agonist max-min
1	COc1ccccc1NC(=O)N1CCN(C(=O)c2cc3ccsc3n2Cc2ccccc2C)CC1C (stereo not drawn)	0	0
2	Cn1ccnc1-c1c(-c2ccccc2)ncn1CCc1n[nH]c(=O)[nH]1	1	-6
3	CCCc1nc(C(=O)Nc2cnc3n2CCCC3)cs1	-2	-2
4	Cc1cccc(NC(=O)CSc2ncc(S(=O)(=O)c3cc(C)ccc3C)c(=O)[nH]2)c1	6	5
5	Cn1cnnc1SCC(=O)Nc1sc2c(c1C#N)CCC2	-6	-13
6	CCc1ccc(OCCn2c(C(O)CC)nc3ccccc32)cc1 (stereo not drawn)	2	6
7	Cn1cnc(S(=O)(=O)N(Cc2ccco2)C2CC2)c1Cl	3	-2
8	C=CCn1c(=O)n(CCC#N)c(=O)n(CCC#N)c1=O	4	5
9	O=C(C1CCCN1C(=O)C1CCCCC1)N1CCc2[nH]c3ccccc3c2C1 (stereo not drawn)	15	4
10	CN1CCCN(C(=O)[C@@H]2C[C@@H](Sc3nc4ccccc4[nH]3)CN2C2C3CC4CC(C3)CC2C4)CC1 (stereo partly drawn)	28	22
11	CN1CC2(CCCN(C(=O)C3=Cc4ccccc4OC=C3)C2)OC1=O (stereo not drawn)	5	5
12	Cc1cc(C)n2ncc(C(=O)N(Cc3c(F)cccc3Cl)C3CC3)c2n1	21	18
13	COc1ccccc1CNc1nn[nH]n1	-3	-3
14	Cc1csc(NC(=S)NC(=O)C2CC2)n1	1	-2
15	CCCc1nc(C(=O)N2CC[C@@H](c3sccc3C)[C@H](O)C2)cs1	1	2
16	O=C(NCC(O)c1ccc(Cl)cc1)c1cc(F)cc(F)c1 (stereo not drawn)	9	6
17	CCc1ccc(S(=O)(=O)Nc2ccnc3ccncc23)s1	1	13
18	CC(C)(O)C#Cc1cccc(C(=O)N2CCCC(C(=O)c3ccc4ccccc4c3)C2)c1 (stereo not drawn)	0	-4
19	COc1ccccc1C(=O)C1CCCN(C(=O)c2csc(-c3cccs3)n2)C1 (stereo not drawn)	15	11
20	Cc1c(C(=O)O)sc2[nH]c(=S)n(NC(=O)CC(C)O)c(=O)c12 (stereo not drawn)	-1	-2
21	CC(C)CN(CC(=O)N1CC(=O)N(c2ccc(Cl)cc2)C1)C(=O)NC1CCCCC1	-15	-5
22	COc1ccc(OC)c(NC(=O)CSc2nnc(C)c3cnn(-c4ccc(C)c(C)c4)c23)c1	-6	-12
23	O=C(/C=C/c1cscn1)N1CCN(C(=O)CC2CCCCC2)CC1	3	2
24	O=c1c2ccccc2nc(-c2ccc(Cl)c(F)c2)n1C1CCCCC1	4	-1
25	COc1cc2c(cc1OC)C(C(C)NC(=O)c1ccccc1C)N(Cc1cccc(F)c1)CC2 (stereo not drawn)	5	9
26	CCN(C)CC1CCN(C(=O)Nc2ccc(C(N)=O)c(F)c2)C1 (stereo not drawn)	4	3
27	O=C1C2ON(c3ccccc3)C(c3ccccc3)C2C(=O)N1c1cccc(C(F)(F)F)c1 (stereo not drawn)	9	15
28	Cc1ccc(F)c(Oc2cc(N3CCN(C(=O)c4cccs4)C(C)C3)ncn2)c1 (stereo not drawn)	-11	-4
29	CN(C)CCCNc1oc(-c2ccc(COc3ccc(Cl)cc3)o2)nc1C#N	1	5
30	CCOC(=O)c1nn(-c2ccccc2C)c(=O)cc1OS(=O)(=O)c1cccs1	5	1

Shown with values under each structure: entries from further up
The line under a structure holds: NPYLR7 agonist	NPYLR7 agonist max-min
#13 COc1ccccc1CNc1nn[nH]n1
 : -3	-3
#14 Cc1csc(NC(=S)NC(=O)C2CC2)n1
 : 1	-2
#15 CCCc1nc(C(=O)N2CC[C@@H](c3sccc3C)[C@H](O)C2)cs1
 : 1	2
#16 O=C(NCC(O)c1ccc(Cl)cc1)c1cc(F)cc(F)c1 (stereo not drawn)
 : 9	6
#17 CCc1ccc(S(=O)(=O)Nc2ccnc3ccncc23)s1
 : 1	13
#18 CC(C)(O)C#Cc1cccc(C(=O)N2CCCC(C(=O)c3ccc4ccccc4c3)C2)c1 (stereo not drawn)
 : 0	-4

Arranged by count of non-hydrogen atoms (lowest first): 4 of the compounds above
No.	Structure	NPYLR7 agonist	NPYLR7 agonist max-min
8	C=CCn1c(=O)n(CCC#N)c(=O)n(CCC#N)c1=O	4	5
17	CCc1ccc(S(=O)(=O)Nc2ccnc3ccncc23)s1	1	13
11	CN1CC2(CCCN(C(=O)C3=Cc4ccccc4OC=C3)C2)OC1=O (stereo not drawn)	5	5
25	COc1cc2c(cc1OC)C(C(C)NC(=O)c1ccccc1C)N(Cc1cccc(F)c1)CC2 (stereo not drawn)	5	9

Next structures follow:
No.	Structure	NPYLR7 agonist	NPYLR7 agonist max-min
31	COC(=O)[C@]1(C)CCC[C@]2(C)c3ccc(C(C)C)cc3C(=O)CC12 (stereo partly drawn)	-4	-9
32	O=C1OC(c2ccccc2Br)=N/C1=C\C=C\c1ccccc1	19	-1
33	CC(=O)C1=C(c2ccc(C3CCCCC3)cc2)N(C(C)=O)n2cnnc2S1	5	1
34	Cc1ccc(CN2CCCC(CNC(=O)c3cccc(C(F)(F)F)c3)C2)s1 (stereo not drawn)	7	1
35	Cc1oc(-c2cccc(Cl)c2)nc1CN(C)Cc1cnn(C)c1	12	3
36	O=C(OCC(=O)N1CCCC(C(F)(F)F)C1)c1c[nH]c2ccc(Br)cc12 (stereo not drawn)	3	1
37	COCC(c1ccccn1)N(C)C(=O)c1c[nH]c(=O)cn1 (stereo not drawn)	1	4
38	O=c1[nH]c(O)c(C=Nc2cccnc2)c(=O)[nH]1	-7	-12
39	CCCCNC(=O)NCC12CC3CC(CC(C3)C1)C2	4	3
40	CC(C)c1cc(C(C)C)n(C2CCN(C(=O)Cc3ccc4c(c3)OCO4)CC2)n1	21	14
41	Cn1cccc1CN1CCC1(C)C(=O)Nc1ccccc1Oc1ccccc1 (stereo not drawn)	2	-2
42	CCC(CNC(=O)C1CCCN(S(=O)(=O)c2ccc(F)cc2)C1)c1ccccc1 (stereo not drawn)	10	16
43	O=C(NCCc1ccc(O)cc1)c1cccnc1Oc1cccc([N+](=O)[O-])c1	-9	-18
44	COc1ccc(-c2nn(-c3ccccc3C)cc2CN(C)Cc2ccon2)cc1F	5	2
45	CCOC(=O)N1CCN(C(=O)CSc2nc3c(c(=O)n2CCc2ccccc2)SCC3)CC1	-4	-7
46	O=C(Nc1ccsc1)c1cncc(C(=O)Nc2ccsc2)c1	3	0
47	COc1ccc(C(=O)CSc2ccc3nc(-c4ccccc4)cn3n2)cc1	4	6
48	CC(C(=O)Nc1ccc(Cl)cn1)N(C)CC(=O)Nc1cccc(F)c1 (stereo not drawn)	-2	-1
49	CC1CCC2(CC1)NC(=O)N(CC(=O)NC(C)C(C)C)C2=O (stereo not drawn)	0	0
50	NC(COCc1ccccc1)c1csc(Nc2ncccn2)n1 (stereo not drawn)	-2	-1
51	Cc1ccn2c(=O)c(NC(=O)C(C)(C)C)c(C)nc2c1	1	-1
52	COc1cccc(OC)c1C(=O)N1CCN(C(C(=O)NCc2ccc3c(c2)OCO3)C2CCCC2)CC1 (stereo not drawn)	5	6
53	COc1cccc(CNS(=O)(=O)c2cc3c4c(c2)CCN4C(=O)CC3)c1	9	6
54	O=C(CCC1CCN(C(=O)CC2CCC(=O)N2)CC1)Nc1ccccc1 (stereo not drawn)	13	7
55	CN(C(=O)c1ccc(Br)o1)c1ccccc1C(=O)Nc1ccc(F)cc1	2	0
56	CCc1nc2ccc(C(=O)NC3CCN(Cc4ccccc4)CC3)cn2c1N(CC)Cc1cccc(Br)c1	21	17
57	Cc1cc(C(=O)NCc2csc(-c3ncccn3)n2)c2cccc(C)c2n1	12	-1
58	CC(=O)N1CCc2nc(C)nc(NCCSc3ccccn3)c2CC1	3	-3
59	O=C(CN1CCN(Cc2cc(-c3ccc(Cl)cc3)no2)CC1)N1CCOCC1	1	-1
60	CN(C)S(=O)(=O)c1ccc(=S)[nH]c1	13	26
61	CC(=O)Nc1ccc(CN2CCCN(c3ccncc3C)CC2)cc1	-6	-6
62	O=S(=O)(NCc1cn2cc(Cl)ccc2n1)c1ccc(F)cc1	-4	-3
63	O=C(NCCN1CCOCC1)c1cc2ccsc2n1CCCc1ccccc1	-2	-3
64	CCOC(=O)C(=CC(=CN(C)C)C=C(C(=O)OCC)C(=O)OCC)C(=O)OCC	-13	-22
65	Cc1nn(C)c2ncc(NC(=O)c3nn(-c4ccc(Cl)cc4)c(C)cc3=O)cc12	1	-1
66	COc1ccc(N2C(=O)c3ccccc3NC23CCN(CCCC#N)CC3)cc1	0	17
67	Cc1cccc(NC(=O)CN(C)c2ncnc3sccc23)c1C	1	2
68	CN(Cc1ccccc1)c1ncccc1CNC(=O)c1ccc[n+]([O-])c1	7	3
69	O=C(Nc1cccc(Cl)c1)C1CC12c1ccccc1-c1ccccc12 (stereo not drawn)	-6	-13
70	CC(C)Oc1ccc(-c2cc(C(=O)N/N=C\c3cccs3)[nH]n2)cc1	0	-4
71	NS(=O)(=O)c1ccc2c(c1)OCCO2	1	-1
72	O=c1c(/C=N\O)c(SCc2ccccc2)nc2ccccn12	-8	-23
73	COc1cncc(-c2cccc(CN3CCOCC3)c2)c1	-1	1
74	CCS(=O)(=O)NC(C)c1cccc(C(F)(F)F)c1 (stereo not drawn)	-2	1
75	Cc1ncsc1CCC(=O)N1CCCC(C(=O)c2ccc3c(c2)OCO3)C1 (stereo not drawn)	-1&-4	-3&-6
76	CCCCCNC(=O)CSc1nnc2n(CCC)c(=O)c3ccccc3n12	4	10
77	CCc1ccccc1NC(=O)Cn1nnc(C(=O)Nc2ccc(C)c(C)c2)c1N	-6	-15
78	Cc1noc(C)c1CN(C)C(=O)NC(C)C(C)(C)c1ccccc1 (stereo not drawn)	7	4
79	Cc1ccc2cccc(OC(=O)c3cccc(Br)c3)c2n1	1	0
80	Cc1sc2nc(CCc3ccccc3)nc(N3CCN(C(=O)Nc4c(Cl)cccc4Cl)CC3)c2c1C	9	13
81	O=C(Nc1ccc(Cl)cc1C(=O)c1ccccc1Cl)c1cc2nc(-c3cccs3)cc(C(F)(F)F)n2n1	-12	-22
82	Cc1ccc(C)c(C2C(C#N)C(=N)SC(=N)C2C#N)c1 (stereo not drawn)	120*	107*
83	C[C@@H]1COCCN1c1cc(C2(S(C)(=O)=O)CC2)nc(-c2cccc3[nH]ccc23)n1	-1	-9
84	COC(=O)c1ccc2c(c1)S(=O)(=O)NC(=NCc1ccco1)S2	-2	-3
85	Cc1cccc(/C=C/C(=O)N2CCCC(c3nncn3C(C)C)C2)c1 (stereo not drawn)	3	3
86	Cc1nccn1-c1cc(CNS(=O)(=O)C2CCCCC2)ccn1	9	11
87	C=CCN1C(=O)C(C(C)CC)NC12CCN(C(=S)NC(C)C)CC2 (stereo not drawn)	5	4
88	COc1cccc(OC)c1OCc1nc(C(=O)NCc2ccc3c(c2)OCO3)cs1	19	18
89	CCc1csc(CNC2CCCNC2)n1 (stereo not drawn)	9	3
90	O=c1c2ccccc2nc(CN2CCOCC2)n1CC(O)c1cccc(Br)c1 (stereo not drawn)	3	2

Further compounds:
No.	Structure	NPYLR7 agonist	NPYLR7 agonist max-min
91	Cc1cc(C(=O)N2CCOCC2)nn1CC(=O)Nc1nc2ccccc2s1	2	1
92	Cc1cccc(C(C)C)c1N(CC(=O)N(C)C)CC(=O)N(C)C	6	4
93	C[C@@H](NC(=O)c1ccc(-n2nc(-c3cccc(Cl)c3)cc2N)cc1)C(C)(C)C	3	-3
94	CC(C)Oc1cccc(C(=O)C2CCCN(Cc3cccn3-c3ccccn3)C2)c1 (stereo not drawn)	0	-2
95	CCOC(=O)C1(CCCc2ccccc2)CCN(C(=O)C2CC23CCC3)CC1 (stereo not drawn)	-6&10	-8&10
96	CCCc1cc(C(=O)N2CC=C(c3ccccc3)CC2)n[nH]1	-5	-13
97	COc1ccc(CN(C)C(=O)c2ccc(CSC)o2)cc1O	0	-4
98	COc1ccc(C2C3C(=O)N(c4ccccc4OC)C(=O)C3ON2c2ccccc2)cc1 (stereo not drawn)	-6	-12
99	C=CCNC(=O)NC(=O)COC(=O)c1oc2ccccc2c1C	12	13
100	Cc1ccc(C(=O)N(C)Cc2n[nH]c3c2CCC3)cc1NC(=O)C1CC1	3	2
101	COc1cccc(C2C(Oc3cccc(C#N)c3)C(=O)N2CC2CCCO2)c1 (stereo not drawn)	7	6
102	COc1ccc(-c2cc(C(=O)O)n(-c3ccc(C)cc3C)n2)c(OC)c1	11	18
103	C[C@]12CCCC(=O)N1[C@H](CO)[C@@H](c1ccccc1)O2	-2	-1
104	Cc1ccccc1OCC(=O)N=Nc1c(O)[nH]c2c(C)cc([N+](=O)[O-])cc12	2	-8
105	CN(C)[C@H]1CCN(c2ccnc(C(=O)NCc3ccco3)c2)C1	7	1
106	Cc1cccc(CN2CCCC3(CCN(C(=O)CN4C(=O)CNC4=O)C3)C2)c1 (stereo not drawn)	2	-1
107	CN(C)c1ncccc1CNC(=O)c1ccc(-c2ncn[nH]2)cc1	13	8
108	CCOCCCn1c(C)cn2c3c(=O)n(Cc4cc(C)ccc4C)c(=O)n(C)c3nc12	8	6
109	COc1cccc(CC2CN(C(=O)C3=Cc4ccccc4OC=C3)CCO2)c1 (stereo not drawn)	7	1
110	O=C(Nc1ccc2c(c1)nc1n2CCCCC1)c1ccc(CN2CCOCC2)cc1	7	11
111	Cc1nn(C)c(C)c1S(=O)(=O)N1CCCCC1	15	6
112	CCc1ccc(OCC(=O)N2CCN(S(=O)(=O)c3c(C)noc3C)CC2)cc1	0	1
113	COCCn1cc(NC(=O)Nc2cccc(C)c2C)c2ccccc21	14	6
114	CS(=O)(=O)c1cccc(C(=O)N(CCCN2CCOCC2)c2nc3ccccc3s2)c1	-4	-10
115	COCCOCC(=O)N1CCN(Cc2ccc(-c3noc(COC)n3)cc2)CC1	4	1
116	O=C(Nc1cccc(C2SCC(=O)N2c2ccccc2F)c1)Nc1ccc(F)cc1F (stereo not drawn)	-13	-10
117	CC(C)CCOc1ccccc1CNC(=O)CNC(=O)c1ccoc1	6	3

A portion of the library; rates above refer to the full screens.
